Source: PubChem BioAssay (National Center for Advancing Translational Sciences (NCATS))
Rango release inh: prevents RanGTP from dissociating the Rango-importin beta complex. Potency, µM (top dose mostly 46.1 µM), for inactives: at the highest dose activity change, negative = inhibition. AID 540253. 340,000 compounds, 0.071% hits. O95149+P62826. Biochemical FRET Rango-importin beta, RanGTP-induced dissociation; active means falling FRET ratio curve, often poorly fitted, with flat reads before Ran was added; inconclusive means other falling curves, or compound fluorescence or quenching; inactive means flat or rising ratio curve;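 further: potency means the concentration at half of the fitted maximal effect; % of control where 0% means no effect; nearly all actives have a fitted effect of over 45% in size; -100% = wells without RanGTP and RCC1; the record marks most hits as doubtful in a second field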
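Compounds sat 5 min at room temperature with 0.1 uM Rango biosensor plus 0.25 uM importin beta, then FRET pre-read. RanGTP-RCC1 (0.6 uM Ran, 2mM GTP, 0.2 uM RCC1) added for 45 min, and the CFP/YFP post-read measured blocked complex dissociation.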
miR-21 reporter: miR-21 reporter, rising signal; AID 2288; 340,000 tested, under 10 active; HeLa miR-21 FLuc reporter, luciferase, 48 h; Potency, µM (doses to about 38.3 µM), for the others: top-dose reporter change, positive = more light; active = well fitted rising curve with a large enough effect; inconclusive = small, poorly fitted or top-dose-only effect; inactive = no such curve, though single readings can be large or run the other way;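 further: % of control where 0% means no effect; miR-21 action dims this reporter so a rising signal means less miR-21 action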
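Luminescence from a firefly luciferase reporter carrying a miR-21 binding site downstream, stably expressed under a CMV promoter in HeLa cells that make miR-21 endogenously, reports miRNA modulation after 48 h compound exposure up to approximately 40uM final.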
GLA inh pH 4.5: alpha-galactosidase A (human) inhibition, pH 4.5; P06280; purified enzyme, 4-MU-alpha-Gal fluorescence, pH 4.5; activity change, negative = inhibition, % at 105 µM; 230,000 tested, under 10 active; AID 1467; inconclusive = small, poorly fitted or top-dose-only inhibition, or a rising curve; inactive = flat fitted curve, though single readings scatter; no compound was filed as active;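 further: 0% = full activity with enzyme and -100% = basal without enzyme; dose as in the result columns while the protocol names 77 µM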
Target sequence (P06280 whole entry, looked up): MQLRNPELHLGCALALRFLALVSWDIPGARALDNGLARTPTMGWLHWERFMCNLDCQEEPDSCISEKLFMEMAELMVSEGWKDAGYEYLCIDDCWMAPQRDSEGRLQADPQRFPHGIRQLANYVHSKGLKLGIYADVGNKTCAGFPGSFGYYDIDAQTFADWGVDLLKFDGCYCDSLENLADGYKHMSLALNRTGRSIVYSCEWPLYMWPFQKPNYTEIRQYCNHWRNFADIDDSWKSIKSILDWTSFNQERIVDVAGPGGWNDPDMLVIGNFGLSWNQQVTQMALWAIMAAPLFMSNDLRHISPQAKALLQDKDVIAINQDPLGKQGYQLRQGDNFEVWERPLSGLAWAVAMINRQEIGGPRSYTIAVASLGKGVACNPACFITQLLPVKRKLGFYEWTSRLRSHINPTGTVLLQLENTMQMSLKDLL
Rango complex inh: prevents formation of the Rango-importin beta complex | Q14974 | Rango CFP/YFP FRET sensor + importin beta, 45 min | Potency, µM (highest dose often 92.2 µM), without a hit: at the highest dose inhibition of complex formation | 340,000 compounds, 0.031% hits | AID 540263; active = rising FRET ratio curve, often small or poorly fitted; inconclusive = mostly compound fluorescence or quenching in the first reads; inactive = flat curves in all reads;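 further: potency means the concentration at half of the fitted maximal effect; 0% = DMSO wells and 100% = buffer wells lacking importin beta; nearly all actives have a fitted effect of over 15% in size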
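FRET biosensor (snurportin 1 IBB flanked by EYFP and cerulean), 50 nM, with compound 5 min, then 0.125 microM importin beta in PBS, 1 mM DTT, 0.02% Tween-20, 0.1% BSA. CFP/YFP ratio read after 45 min at room temperature; pre-read flags interference.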
Active calls of the source: *; u = inconclusive; x = not tested or not shown.

SMILES	Rango release inh	miR-21 reporter	GLA inh pH 4.5	Rango complex inh
CCCCn1c(N)c(N(CCC(C)C)C(=O)C2CC(=O)N(c3ccc4c(c3)OCCO4)C2)c(=O)[nH]c1=O (centres undefined)	16%	5%	x	4.6%
COC(=O)C(CC(C)C)NC(=O)c1ccc([N+](=O)[O-])c(C)c1 (centres undefined)	-12%	0%	-27	6.9%
CCOC(=O)c1ccc(NC(=O)CN2CCN(C(=O)c3ccco3)CC2)cc1	-9%	2%	x	u
COc1ccc(OC)c(S(=O)(=O)N2CCCC(C(=O)N3CCOCC3)C2)c1 (centres undefined)	2%	0%	x	-0.4%
Cc1ccc(-c2cc(C(=O)Nc3ccncc3)c3ccccc3n2)cc1	-1%	x	x	-0.5%
Cc1cc(C)cc(NC(=O)Cn2c(=O)oc3cc(S(=O)(=O)N4CC(C)CC(C)C4)ccc32)c1 (centres undefined)	24%	23%	-3	7.2%
Cc1c(C(=O)O)oc2c3c(ccc12)OCCO3	0%	-7%	1	3.6%
CN1CCN(C(=O)CN(C)S(=O)(=O)c2cc(Cl)ccc2Cl)CC1	-8%	0%	x	-5.7%
CN1CCCC(CC2c3ccccc3Sc3ccccc32)C1 (centres undefined)	u	x	x	-2.0%
COc1ccc(OC)c(N2C(=O)CC(NNC(=O)c3ccc4c(c3)OCO4)C2=O)c1 (centres undefined)	-2%	x	x	-1.1%
C[C@@H](NC(=O)c1nc[nH]c1C(=O)OCc1ccccc1)c1ccccc1	-23%	x	x	-1.5%
CCOc1ccc2nc(NS(=O)(=O)Cc3ccccc3)sc2c1	21%	-7%	-7	0.6%
O=C(COC(=O)c1ccc(Cl)cc1O)NCCN1C(=O)CSC1=O	2%	-2%	5	0.2%
O=C(Cc1ccc([N+](=O)[O-])cc1)OCc1ccc([N+](=O)[O-])cc1	0%	4%	x	1.0%
CC(C)c1ccc(NNC(=O)C2CCC2)cc1	21%	-12%	-4	0.2%
O=C(O)CCC(=O)NNc1nc(-c2ccccc2)c2cc(Cl)ccc2n1	0%	-1%	x	6.1%
CCOC(=O)C(CC)/C(C)=N/NC(=O)c1ccccc1[N+](=O)[O-] (centres undefined)	9%	-3%	-11	-1.5%
CCOc1ccc(CCNC(=O)c2cccs2)cc1OCC	11%	3%	x	-1.6%
O=C(c1ccco1)N(Cc1ccco1)Cc1cc2ccccc2[nH]c1=O	9%	2%	x	-2.9%
CCN(CC(=O)Nc1ccc(NC(C)=O)cc1)C(=O)c1ccccc1CCc1ccccc1	1%	x	x	-1.0%
Cc1oc(-c2ccc(Cl)cc2)nc1CN1CCC(C(=O)N2CCc3ccccc3C2)CC1	18%	-11%	-10	-3.5%
COc1ccccc1NC(=O)Nc1ccnn1Cc1cccs1	3%	1%	1	-0.3%
Cc1ccc(C2CC(c3ccccc3Cl)n3nc(N)nc3N2)cc1 (centres undefined)	-20%	-9%	-2	-3.4%
Cc1ccc(-n2c(-c3ccccc3)c[n+]3c2CCC3)cc1	-6%	28%	2	-1.0%
CCN1CCN(C(=O)c2ccc(Cn3c(=O)[nH]c4cc(OC)c(OC)cc4c3=O)cc2)CC1	-16%	0%	-12	-1.7%

Record cards (already shown). Order of screens: Rango release inh	miR-21 reporter	GLA inh pH 4.5	Rango complex inh
`O=C(O)CCC(=O)NNc1nc(-c2ccccc2)c2cc(Cl)ccc2n1` is listed with 0%	-1%	x	6.1%
`CCOC(=O)c1ccc(NC(=O)CN2CCN(C(=O)c3ccco3)CC2)cc1` is listed with -9%	2%	x	u

Fetched by compound from the entries so far, 3 records:
SMILES	Rango release inh	miR-21 reporter	GLA inh pH 4.5	Rango complex inh
CN1CCCC(CC2c3ccccc3Sc3ccccc32)C1 (centres undefined)	u	x	x	-2.0%
COc1ccc(OC)c(S(=O)(=O)N2CCCC(C(=O)N3CCOCC3)C2)c1 (centres undefined)	2%	0%	x	-0.4%
Cc1c(C(=O)O)oc2c3c(ccc12)OCCO3	0%	-7%	1	3.6%

The main list resumes, starting five compounds before the break.
SMILES	Rango release inh	miR-21 reporter	GLA inh pH 4.5	Rango complex inh
Cc1oc(-c2ccc(Cl)cc2)nc1CN1CCC(C(=O)N2CCc3ccccc3C2)CC1	18%	-11%	-10	-3.5%
COc1ccccc1NC(=O)Nc1ccnn1Cc1cccs1	3%	1%	1	-0.3%
Cc1ccc(C2CC(c3ccccc3Cl)n3nc(N)nc3N2)cc1 (centres undefined)	-20%	-9%	-2	-3.4%
Cc1ccc(-n2c(-c3ccccc3)c[n+]3c2CCC3)cc1	-6%	28%	2	-1.0%
CCN1CCN(C(=O)c2ccc(Cn3c(=O)[nH]c4cc(OC)c(OC)cc4c3=O)cc2)CC1	-16%	0%	-12	-1.7%
Cc1cc(C)c(C(=O)COC(=O)c2cc([N+](=O)[O-])ccc2NCCO)cc1C	-3%	-10%	-3	0.6%
CCn1cc(C(=O)N2CCN(Cc3ccc4c(c3)OCO4)CC2)c2cc(OC)c(OC)cc2c1=O	1%	4%	3	0.5%
Cc1cc(C(=O)N/N=C/c2c(C)nn(-c3ccccc3)c2Cl)n[nH]1	-4%	-51%	-10	-0.7%
CC1(C)OC2CC3C4CC=C5CC(O)CCC5(C)C4CCC3(C)C2(C(=O)CO)O1 (centres undefined)	4%	x	x	-2.4%
CC(=O)Nc1ccc(NC(=O)CSc2nccn2Cc2ccccc2)cc1	8%	-10%	7	-7.4%
Cc1cccn2c(=O)c3cc(C(N)=S)c(=N)n(CCCOC(C)C)c3nc12	u	-10%	4	u
CC(C)[C@@H](C(=O)N1CCN(C(=O)OC(C)(C)C)CC1)n1cc(CCO)nn1	-6%	-1%	3	0.2%
CCc1ccc(NC(=O)C(=O)c2ccccc2NC(C)=O)cc1	0%	x	x	1.1%
O=C(NNc1nc2c(F)cc(F)cc2s1)C1=COCCO1	-17%	-1%	-7	-0.8%
COc1ccccc1C(=O)NC1CCN(C(=S)NCCc2ccccc2)CC1	-3%	-1%	-2	-0.1%
COc1ccc(-c2oc3ccc(N4CCOCC4)cc3c2C#CCO)cc1	-1%	x	x	-2.2%
COCCN(C(=O)Nc1ccccc1)c1ccccc1C	-3%	3%	-3	0.7%
O=C1NC(=O)C(=Cc2ccccc2[N+](=O)[O-])S1	-30%	x	x	-3.0%
O=C(NCCCNCc1ccccc1)c1ccncc1	-12%	0%	2	-0.2%
CCc1nc(Nc2ccncc2)c2oc3ccccc3c2n1	9%	25%	3	3.1%
Cc1cccc(N(C)c2cc(C)nc3nc(C)nn23)c1	-13%	10%	6	-0.7%
O=S(=O)(NC1CCCCC1Nc1ccccc1)c1ccccc1 (centres undefined)	30%	-4%	-3	4.0%
Cn1cccc1Cc1nnc(SCC(=O)N2CCCCCC2)n1-c1ccc(F)cc1	10%	1%	0	-3.2%
O=C(C=Cc1ccccn1)c1ccccc1	12%	x	x	0.1%
Cc1cc(C)cc(NC(=O)CSc2nnc(CN3CCOCC3)n2C)c1	33%	-6%	-1	0.2%
COc1ccccc1NC(=S)NCc1ccc(S(N)(=O)=O)cc1	-8%	-2%	-6	1.1%
N#Cc1c(C(F)(F)F)cc(-c2cccs2)nc1SC(C(=O)O)c1ccccc1 (centres undefined)	-16%	x	x	u
CC(C)CN1CCN(Cc2cccc3nccnc23)CC1CCO (centres undefined)	1%	-3%	-13	-1.3%
O=C(CN1CCSC1=O)N1CCN(S(=O)(=O)c2ccc(F)cc2)CC1	-4%	x	x	2.1%
Cc1ccccc1NC(=O)c1ccc(Cl)c(NC(=O)c2ccncc2)c1	-15%	-20%	-13	1.1%

Remaining list, next part:
SMILES	Rango release inh	miR-21 reporter	GLA inh pH 4.5	Rango complex inh
CC[C@]12c3[nH]c4cc(-c5ccco5)ccc4c3CCN1C(=O)[C@@H](CC(=O)NCc1ccco1)C[C@@H]2C(=O)N1CCN(C(=O)c2ccco2)CC1	-22%	x	x	u
O=C(NCCCN1CCOCC1)c1ccc2c(c1)N(Cc1c(F)cccc1Cl)C(=O)c1ccccc1S2	1%	15%	x	-1.8%
CCOC(=O)c1[nH]c2ccc(Br)cc2c1NC(=O)CCN1CCCC(C)C1 (centres undefined)	x	-11%	-9	x
CCn1c(=O)c(-[n+]2ccccc2)c(O)c2ccccc21	-1%	-2%	4	-2.1%
CCC(=O)NC(Cc1ccccc1)c1ccc2c(c1)OCCCO2 (centres undefined)	-11%	-15%	-12	-1.1%
O=c1[nH]c2cc3c(cc2cc1CN(CCc1ccccc1)Cc1nnnn1CC1CCCO1)OCO3 (centres undefined)	-28%	-10%	-3	u
CCc1ccc2[nH]c(=O)c(CN(CCN3CCOCC3)C(=O)Nc3ccccc3F)cc2c1	-1%	-23%	4	-3.0%
CCN(CC(=O)NC(C)C)C(=O)C(CCSC)NC(=O)c1cccc(C)c1 (centres undefined)	-6%	0%	6	6.0%
CCCC(=O)C1=C(O)C(C(=O)OC)C(C)(C)CC1=Nc1cccc2ccccc12 (centres undefined)	-5%	-3%	-14	1.7%
C[N+](C)(C)CC(O)CC(=O)O (centres undefined)	-4%	x	11	0.7%
C/C(=N/NC(=O)C(=O)N/N=C(/C)c1ccccc1)c1ccccc1	x	-1%	u	x
COc1ccc2oc(C(=O)NCc3ccccc3CN3CCCC3)c(C)c2c1	-10%	x	x	-1.0%
CC(=O)Nc1sc2c(c1C#N)CC(C)(C)NC2(C)C	-11%	-2%	-8	0.6%
CN(C)S(=O)(=O)c1cccc(NC(=O)/C=C/c2ccccc2[N+](=O)[O-])c1	-13%	-13%	1	0.4%
O=S1(=O)c2ccc(Br)cc2N2CC[C@H](C2)N1Cc1ccc(Cl)cc1	-6%	x	x	-4.7%
Cc1cccc(N2CCN(C(=O)Cc3ccc(Br)cc3)CC2)c1C	3%	-29%	0	-0.8%
CCOC(=O)c1c(C)[nH]c(C)c1S(=O)(=O)NCCCc1ccco1	22%	-14%	x	-0.3%
CCCc1cc(=O)[nH]c(SCC(=O)N(CC(C)C)C2CCS(=O)(=O)C2)n1 (centres undefined)	4%	-1%	1	-0.1%
CCCS(=O)(=O)N1CCN(C(=O)COc2ccc(-c3ccccc3)cc2)CC1	-20%	-8%	-1	-0.7%
CCc1ccccc1NC(=O)C1CCN(C(=O)c2cccs2)CC1	-9%	-1%	x	1.7%
Cc1ccc(NS(=O)(=O)c2ccc(NS(=O)(=O)c3cccs3)cc2)cc1	1%	4%	0	1.2%
CC(=O)OCN(C#N)c1nc(N(C)C)nc(N(C)C)n1	-7%	-3%	-6	-1.1%
Cc1ccc(-n2nnc(-c3cccnc3Cl)n2)cc1	3%	-65%	0	-0.3%
O=S(=O)(N/N=C/c1ccc2c(c1)OCCO2)c1ccc(Cl)cc1	-8%	-6%	7	8.1%
COc1cc(C(C#N)N2CCCCC2)ccc1O (centres undefined)	-3%	-2%	-16	-2.5%

New compounds follow:
SMILES	Rango release inh	miR-21 reporter	GLA inh pH 4.5	Rango complex inh
Cc1ccccc1OCC(=O)Nc1ccccc1CO	-1%	-26%	0	u
O=C(CN1C(=O)NC2NC(=O)NC21)NN=C1CCCC1 (centres undefined)	6%	-5%	3	0.2%
CCc1sc(C(=O)NC(C)C2CCCO2)cc1Br (centres undefined)	15%	-21%	x	2.1%
O=C(Cc1ccccc1)Nc1ccc(NC(=O)c2ccco2)nc1	27%	-34%	-2	0.5%
Cc1ccc(Oc2ncccc2C(=O)NCC(=O)O)cc1	0%	-4%	0	3.7%
CC1(C)c2ssc(=S)c2-c2ccccc2N1C(=O)c1ccco1	9%	-4%	5	-2.5%
CC(C)CN(C(=O)COC(=O)c1ccc(-c2ccccc2)cc1)C1CCS(=O)(=O)C1 (centres undefined)	29%	3%	2	9.9%
COC(=O)c1c(NC(=O)C2CCCCC2)sc2c1CCN(C(C)C)C2	1%	2%	x	u
O=C(CSc1nc2ccccc2[nH]1)Nc1ccc(F)c(F)c1	10%	-7%	5	2.0%
CCCCc1nnc(NC(=O)CSc2nc(=O)cc(N)n2-c2cccc(C)c2)s1	-4%	0%	-6	-1.8%

An excerpt. The share of hits here may be higher or lower than overall.
